TRPML1 blocker – qHTS for Inhibitors of the Human Mucolipin Transient Receptor Potential 1 (TRPML1); TRPML1-inducible cells, Ca2+ dye fluorescence, FDSS; stronger effect = lower value; inhibition of EC80 agonist-evoked calcium signal; activity change, negative = inhibition, % (no concentration beside the values); 0.02% of 390,000 active; in the data active means activity change below about -50%; inconclusive means about -30% to -50%; inactive means above about -30%;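 note: stimulus is agonist 54-4 at its EC80 concentration; % is set by controls: 0 for no effect and ±100 for the full control effect; compound concentration not given in the record; the text of the record puts the active cut at -80%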
Target sequence (Q9GZU1 whole entry, looked up): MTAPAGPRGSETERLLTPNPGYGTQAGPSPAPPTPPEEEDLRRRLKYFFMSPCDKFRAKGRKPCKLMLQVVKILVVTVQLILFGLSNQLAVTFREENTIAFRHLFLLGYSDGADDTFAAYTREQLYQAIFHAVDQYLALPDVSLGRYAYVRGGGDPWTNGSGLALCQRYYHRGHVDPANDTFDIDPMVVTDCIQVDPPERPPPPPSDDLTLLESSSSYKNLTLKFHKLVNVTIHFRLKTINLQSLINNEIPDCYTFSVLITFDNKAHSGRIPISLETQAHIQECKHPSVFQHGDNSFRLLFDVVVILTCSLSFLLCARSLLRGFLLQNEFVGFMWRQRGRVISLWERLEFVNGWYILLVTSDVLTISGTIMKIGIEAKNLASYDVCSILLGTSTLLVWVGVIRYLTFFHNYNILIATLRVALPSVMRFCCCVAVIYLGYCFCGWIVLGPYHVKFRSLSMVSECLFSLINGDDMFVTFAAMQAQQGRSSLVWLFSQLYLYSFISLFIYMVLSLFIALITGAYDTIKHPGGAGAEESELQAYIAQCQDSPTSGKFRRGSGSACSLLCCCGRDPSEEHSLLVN
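TRPML1-DL cells, Tet-induced overnight (~16 h, 37 °C) at 1,500 cells/well, were loaded with Ca8 no-wash dye plus quencher for 45-90 min at room temperature. Compounds were pinned during FDSS kinetic reading; agonist 54-4 at EC80 (4 uM final) then added.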
ClpP mod – qHTS Assay for Activators of ClpP. AID 651965, 2013. ATP-dependent Clp protease proteolytic subunit (Bacillus subtilis (strain 168)), P80244. purified B. subtilis ClpP, FRET peptide cleavage, 20 min. Potency, µM (titrated, usually from 57.5 µM), for inactives: at the highest dose activity change, negative = active. 1.9% of 340,000 active; active = well fitted falling curve with a large enough effect; inconclusive = small, poorly fitted or top-dose-only effect; inactive = no such curve, though single readings can be large or run the other way; note: potency is the fitted concentration of half-maximal effect; the source files actives as falling curves though it sought activators and does not explain the sign; nearly all actives have a fitted effect of over 65% in size; many hits overshoot -100%
Target sequence (P80244 whole entry, looked up): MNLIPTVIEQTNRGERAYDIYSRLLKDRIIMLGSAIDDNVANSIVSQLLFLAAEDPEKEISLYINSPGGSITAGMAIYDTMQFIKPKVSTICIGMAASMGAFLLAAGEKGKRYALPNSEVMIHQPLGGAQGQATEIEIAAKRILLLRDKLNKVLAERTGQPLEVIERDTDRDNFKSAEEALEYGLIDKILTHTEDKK
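FRET quenching reversal measured ClpP activation: 10 microg/mL B. subtilis ClpP at pH 8 with the FRET-FV decapeptide, read at 430 nm after 320 nm excitation. The 20-min minus 0-min signal was scaled between DMSO/no-enzyme wells and ADEP (5.8 microM final).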
* marks the source's active call; other numbers are inactive results; ? = inconclusive. An excerpt, so the mix of outcomes need not match the whole.

SMILES	TRPML1 blocker	ClpP mod
CCOCCCNC(=O)C(c1ccc(Cl)cc1)N(Cc1ccc2c(c1)OCO2)C(=O)c1ccc(NC(C)=O)cc1 (stereo not drawn)	-6	1.6%
CCC(=O)N1CCc2cc(Br)cc(S(=O)(=O)Nc3ccccc3C(=O)OC)c21	-7	-0.6%
Cc1nn(C)c2c1c(C(F)(F)F)cc(=O)n2C(C)C(=O)NCCc1ccccc1 (stereo not drawn)	30	3.6%
CCN(CCCNC(=O)c1nn(-c2ccc(C)cc2)c(=O)c2c1c1ccccc1n2C)c1ccccc1	22	-3.6%
Cc1ccc(C(=O)c2oc3ccccc3c2NC(=O)c2nc(S(C)(=O)=O)ncc2Cl)cc1F	18	-2.5%
Cc1ccc(C)c(N2CCN(C(=O)c3c(C)oc4nc(C)nc(N5CCOCC5)c34)CC2)c1	-10	-3.6%
Cc1ccc2nc(-c3c[nH]c4ccccc34)c(Nc3ccc(F)cc3)n2c1	3	3.6%
O=S(=O)(c1ccc2[nH]c3c(c2c1)CCCCC3)N1CCN(c2ccccc2)CC1	7	-19%
Cc1ccccc1CSc1nc2c(sc3ccccc32)c(=O)n1CCCC(=O)NCCCOC(C)C	-1	-1.9%
CCOC(=O)C1CCN(CCC(=O)Nc2ccc(OC)cc2)CC1	-6	-3.1%
CCC(Sc1nnc(C)n2c1cc1occc12)C(=O)Nc1ccccc1OC (stereo not drawn)	-9	-1.6%
Cc1ccnc(NS(=O)(=O)c2ccc(NC(=O)c3nc(SC(C)C)ncc3Cl)cc2)n1	14	-1.4%
Cc1cccc(NC(=O)Cn2ncc3c4ccccc4n(Cc4ccccc4)c3c2=O)c1C	27	-12%
COc1cc(C2C(=O)N(C3CCCCCC3)CC(=O)N2Cc2ccccc2)ccc1OC(C)C (stereo not drawn)	21	-0.7%
Cc1ccccc1OCCSc1nc2ccc(NC(=O)c3cccc(F)c3)cc2s1	-13	22µM*
CC1(C(=O)NS(=O)(=O)c2cccc(Cl)c2)CCN1C(=O)CC1CC1 (stereo not drawn)	16	-1.7%
CN1CCC(C)(C(=O)Nc2cccc3c2CCCC3)C1 (stereo not drawn)	-9	0.9%
COc1ccc2nc3oc(C(=O)Nc4cccc(C(F)(F)F)c4)cc3cc2c1	26	-23%
CC1CCCCN1CCCNC(=O)c1sc2ncccc2c1-n1cccc1 (stereo not drawn)	44	-1.7%
Cc1ccc(-n2nc(C(=O)N3CCC(C)CC3)c(=O)n(C)c2=O)cc1	22	-2.1%
COc1cccc(-c2cnc(C(O)c3ccc(SC)cc3)[nH]2)c1 (stereo not drawn)	-7	0.6%
Cc1ccccc1C(=O)NNc1ncnc2c1cnn2-c1cccc(Cl)c1	15	0.8%
COc1ccccc1Cn1cc(C(=O)c2ccc(C)cc2)c(=O)c2cc(C)ccc21	1	-2.2%
CCc1ccccc1NC(=O)Nc1cc(C(=O)NCc2ccc(C)cc2)ccc1N1CCCC1	-8	-1.0%
CCOc1ccc(CN2CCc3nc(N4CCN(c5ccccc5OC)CC4)ncc3C2)cc1OC	-9	-4.3%
CCc1cccc(NC(=O)CN2c3ccccc3S(=O)(=O)c3ccccc32)c1	7	-26%
COc1ccc(OC)c2sc(N3CCN(C(=O)C4CC4)CC3)nc12	-2	-1.2%
CCOc1ccc(-n2c(Cc3ccccc3)nnc2SCc2nc(-c3cccs3)no2)cc1	-11	1.7%
Cc1ccc(NC(=O)C(=O)NCC(c2cccnc2)N2CCOCC2)cc1Cl (stereo not drawn)	4	-0.3%
COc1ccc(NC(=O)c2c(N)c(C(=O)c3ccc(OC)cc3)n3ccccc23)cc1	-22	12%
COc1ccccc1NC(=O)C1=C(C)Nc2nc(-c3ccco3)nn2C1c1ccccc1 (stereo not drawn)	1	0.5%
CCOc1ccccc1NC(=O)CSc1ccc2nnc(CCNS(=O)(=O)c3ccccc3)n2n1	-14	0.0%
Cn1c(=O)c2cc(C(=O)NCCCN3CCN(c4ccccc4F)CC3)sc2c2ccccc21	-14	?
Cc1cc(Br)ccc1NC(=O)c1cc2c(=O)n(C)c3cc(Cl)ccc3c2s1	-5	-12%
CC(C)(C)CC(=O)NC1CC(=O)N(c2ccc3c(c2)OCCO3)C1 (stereo not drawn)	6	-0.9%
CNc1cnc(-c2ccc(O)c(OC)c2)cn1	-7	-7.5%
CC1=C(c2ccc(Cl)cc2)S(=O)(=O)N=C1N1CCN(c2cccc(C(F)(F)F)c2)CC1	15	-0.6%
Cc1ccc(NC(=O)c2nc(S(=O)(=O)Cc3cccc(C)c3)ncc2Cl)cc1	7	-0.6%
COc1cccc(NC(=O)N2CCC(n3c(C)nc4cccnc43)CC2)c1	3	-0.2%
CCCCN(CC)CCCNC(=O)Cn1ncc2c3ccccc3n(C)c2c1=O	-25	3.7%
O=C(NC1CCCCC1)c1ccc(CSc2nc3cccnc3n2Cc2cccc(F)c2)cc1	-12	4.5%
Cc1nc2nc(SCC(=O)NC3CCC(C)CC3)nn2c(C)c1Cc1ccccc1 (stereo not drawn)	23	-5.6%
Cc1ccccc1C(=O)Nc1c(C)nc(Nc2ccccc2)nc1Nc1ccccc1	-6	-3.4%
COc1ccccc1-c1cc(C(=O)N2CCCCC2C)no1 (stereo not drawn)	55	-11%
CCOc1cc2sc(N3CCC(C(=O)Nc4cc(C)cc(C)c4)CC3)nc2cc1Br	-13	2.9%
Cc1ccccc1S(=O)(=O)NC(=O)C1(C)CCN1C(=O)CCc1ccccc1 (stereo not drawn)	9	-2.7%
Cc1ccc(NC(=O)CCC(=O)N2Cc3ccccc3Oc3ncccc32)cc1F	-12	-3.5%
O=C(CCCn1c(=O)c2cccn2c2ccccc21)NCc1ccccc1Br	20	-6.0%
CCN(C(=O)CSc1nc2ccccc2n1Cc1ccccc1C#N)c1ccccc1	51	1.4%
CCOC(=O)N1CCN(C(=O)CN(c2cc(C)ccc2OC)S(=O)(=O)c2ccc(C)cc2)CC1	-17	-0.3%

(continued)
SMILES	TRPML1 blocker	ClpP mod
COc1cccc(C(=O)Nc2ccc(-c3nc4ccccc4s3)cc2Cl)c1	-1	4.2%
COc1ccc(OC)c(-c2cc(C(=O)NC(C)c3ccccc3)no2)c1 (stereo not drawn)	12	4.1%
Cc1cccc(OCc2nnc(-c3ccccc3)o2)c1	13	-2.0%
O=c1c2ccccc2nc(N2CCN(c3cccc(Cl)c3)CC2)n1-c1ccccc1	-12	-3.6%
COc1cccc(CNC(=O)CCn2nc(C)c3c(C)n(-c4ccccc4)nc3c2=O)c1	-11	-9.2%
COc1ccc(N2CC(NC(=O)c3cccs3)CC2=O)cc1OC (stereo not drawn)	-11	-0.9%
COc1ccccc1N1CCN(C(=O)c2cc3c(=O)oc4ccccc4c3s2)CC1	14	-0.8%
CCc1ccc(CNC(=O)C2CCN(c3nnc(-n4c(C)ccc4C)s3)CC2)cc1	1	9.6%
Cc1ccc(NS(=O)(=O)c2ccc3[nH]c4c(c3c2)CCCC4)c(C)c1	8	-22%
CC(C)(C)c1ccc(C(=O)N2CCN(CCc3ccccn3)CC2)cc1	3	-0.6%
CC(C)(C)C1CCc2nc(NC(=O)COc3ccc(F)cc3)sc2C1 (stereo not drawn)	-16	-2.1%
O=C(C1CCC1)N1CCc2cc(S(=O)(=O)NCCc3ccccc3)ccc21	4	-1.2%
Cc1ccc2occ(CC(=O)N(Cc3ccc(Cl)cc3)Cc3ccco3)c2c1	60	-2.0%
Cc1ccc(Cl)cc1-n1c(=O)cc(N2CCN(c3ccc(F)cc3)CC2)[nH]c1=O	-10	-0.3%
Fc1cccc(Cc2c(-c3cccc(Cl)c3)nc3c4ccccc4ccn23)c1	7	4.1%
Cc1ccc(CN2CCc3nc(N4CCN(c5ccccc5F)CC4)ncc3C2)cc1C	0	1.5%
Cc1cccc(-c2nc3c4ccccc4n(CC(=O)Nc4cc(F)ccc4F)c(=O)n3n2)c1	-11	1.6%
CCCCOc1ccccc1Cn1c(=O)sc2ccccc21	7	-1.3%
CCc1nnc(SCc2cccc(F)c2)c2cc3sc(C)cc3n12	-4	-23%
CCC(CC)C(=O)N(C)c1c(C)nc2c(OCc3cccc(Cl)c3)cccn12	8	0.3%
COc1ccc(-n2ncc3c(NCCCOC(C)C)ncnc32)cc1	-23	?
Cc1cccc(C(=O)NCc2cn3cccc(C)c3n2)c1	-8	-5.6%
Cc1ccc2c(c1)cc1c(=O)n(CC(=O)NCc3ccco3)nc(C)n12	6	-22%
O=C(Nc1cc2c(cc1C(=O)c1ccccc1Cl)OCCO2)c1ccccc1	-13	-2.1%
Cc1cc(C(=O)C(=O)Nc2nnc(C(C)C)s2)c(C)n1-c1ccccc1	-16	-10%

Carrying on.
SMILES | TRPML1 blocker | ClpP mod
CCOc1ccc(CCNc2ncnc3onc(-c4ccc(Cl)cc4)c23)cc1OCC | 4 | -11%
CCc1ccc(NC(=O)Cn2c(=O)n(CCC(=O)NCCc3ccc(Cl)cc3)c(=O)c3ccccc32)cc1 | 27 | -3.0%
Cc1cccc(NC(=O)Cn2c(=O)n(CCc3ccccc3)c(=O)c3ccccc32)c1 | -7 | 2.5%
CCCCNC(=O)CCCn1c(=O)c2ccccc2n(Cc2cccc(Cl)c2)c1=O | 4 | -13%
COc1ccc(C(=O)N2CCN(Cc3cc(=O)n4nc(-c5ccccc5C)sc4n3)CC2)cc1OC | 31 | -1.2%
CC(C)C[C@H]1CNC(=S)N1C[C@H]1CCCN1C[C@H](Cc1ccc(O)cc1)N1C[C@H](Cc2ccccc2)N(CC2CCCCCC2)C1=S | 54 | 0.7%
COc1cccc(-c2nc(SCc3cc(=O)c4ccc(C)c(C)c4[nH]3)n[nH]2)c1 | -2 | -6.6%
COc1cccc(CNS(=O)(=O)c2ccc(N3CCCCS3(=O)=O)cc2)c1 | 13 | 1.8%
Cc1ccc(-c2cc(C(F)(F)F)n3nc(C(=O)Nc4ccc(C#N)cc4)cc3n2)cc1 | -7 | -23%
COc1ccc(C2CC(=O)c3c([nH]c(C(=O)OCc4ccccc4)c3C)C2)cc1 (stereo not drawn) | -8 | -0.7%
CCc1nn(Cc2cccc(F)c2)c(=O)c2cc3cc(C)ccc3n12 | -23 | -27%
Cc1ccccc1OCC(=O)Nc1nnc(S(=O)(=O)N2CCCCCC2)s1 | -3 | -5.6%
CCC(=O)Nc1ccc(CC)cc1-c1nc2ccccc2n(CC(=O)Nc2cccc(Cl)c2)c1=O | 3 | -0.8%
O=C(Cn1c(SCc2cccc(F)c2)nc2cccnc21)Nc1ccc(F)c(Cl)c1 | 17 | 4.6%
COC(=O)c1cc(NC(=O)c2nn(C)c3c2COc2ccccc2-3)cc(C(=O)OC)c1 | -7 | -0.8%
CCc1ccc(-c2nc3cc(NC(=O)c4cc5ccccc5cc4OC)ccc3o2)cc1 | -3 | 4.4%
CC1(C(=O)NS(=O)(=O)c2ccc(Cl)s2)CCN1C(=O)Cc1ccc(Cl)cc1Cl (stereo not drawn) | -4 | -0.1%
CCc1ccccc1N1C(=O)N(Cc2ccc(C#N)cc2)c2ccccc2S1(=O)=O | -3 | -1.8%
CCc1cnc2c(c1SCc1ccccc1C)c(=O)n(C)c(=O)n2C | 29 | 2.3%
COCCNc1nc(Oc2ccc(CC(=O)OC)cc2)c2sc(-c3ccccc3)cc2n1 | 38 | ?
CC(O)(c1cccc(F)c1)c1nc(-c2cc(F)cc(F)c2)cs1 (stereo not drawn) | -14 | -0.2%
CCOc1ccccc1C1C(C(=O)Nc2ccccc2OC)=C(C)Nc2nc3ccccc3n21 (stereo not drawn) | 17 | 20%
Cc1ccc(-c2nnc(Nc3ccc(O)cc3)c3ccccc23)cc1S(=O)(=O)N1CCOCC1 | -2 | 3.7%
O=C(COc1ccccc1Cl)OCc1cc(=O)n2nc(C3CC3)sc2n1 | 5 | -0.9%
COc1ccc(CNC(=O)c2ccc3c(c2)N(Cc2c(F)cccc2Cl)C(=O)CS3)cc1 | -10 | -1.0%
CCCCN(CC)CCCNC(=O)c1sc2nc3n(c(=O)c2c1C)CCCCC3 | -3 | -1.4%

Structures from the list above that have an NH in an aromatic ring, in the order listed:
SMILES | TRPML1 blocker | ClpP mod
Cc1ccc2nc(-c3c[nH]c4ccccc34)c(Nc3ccc(F)cc3)n2c1 | 3 | 3.6%
O=S(=O)(c1ccc2[nH]c3c(c2c1)CCCCC3)N1CCN(c2ccccc2)CC1 | 7 | -19%
COc1cccc(-c2cnc(C(O)c3ccc(SC)cc3)[nH]2)c1 (stereo not drawn) | -7 | 0.6%
Cc1ccc(NS(=O)(=O)c2ccc3[nH]c4c(c3c2)CCCC4)c(C)c1 | 8 | -22%
Cc1ccc(Cl)cc1-n1c(=O)cc(N2CCN(c3ccc(F)cc3)CC2)[nH]c1=O | -10 | -0.3%
COc1cccc(-c2nc(SCc3cc(=O)c4ccc(C)c(C)c4[nH]3)n[nH]2)c1 | -2 | -6.6%
COc1ccc(C2CC(=O)c3c([nH]c(C(=O)OCc4ccccc4)c3C)C2)cc1 (stereo not drawn) | -8 | -0.7%
